Choline anaer gr: choline-fed anaerobic bacterial growth inhibition; AID 1963822; 0.2% of 55,000 active; Gram-negative bacterium anaerobic choline minimal medium, absorbance growth; stronger effect = lower value; many inactives read as strong as hits in the columns shown; calls only;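 active = growth z-score on choline under -2 at 7 or 20 h with little or no fall on glycerol, limits in tiers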;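 note: stock transfer was 300 nL into about 50 µL; the organism is E. coli; final concentration not given here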
Choline anaer gr early: second read-out of Choline anaer gr, no call of its own (marks repeat the call); z-score; measured here: choline growth z-score, timepoint 1;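 score of optical density at 7 h as mean of two plates; lower means less growth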
* = called active by the depositor; i = inactive; & = joins results of further samples. Only part of the results is shown. The share of hits here may be higher or lower than overall.

SMILES	Choline anaer gr	Choline anaer gr early
Cc1ccccc1-c1cc2n(C)c(C)c(CCC(=O)Nc3ccc4c(c3)OCCO4)c(=O)n2n1	i	-0.29
C=CCn1c(=O)c2ccc(C(=O)NC(C)CC)cc2n2c(=O)n(CC(=O)NC3CCCC3)nc12 (stereo not given)	i	0.04
O=C(CN1c2ccc(F)cc2-c2ccccc2S1(=O)=O)Nc1ccc(F)cc1F	i	1.4
Cc1ccc(-c2nc3sccn3c2Nc2c(C)cccc2C)cc1	i	0.22
O=C(NCc1cccc(Cl)c1)c1nnc(C(=O)Nc2ccc(F)cc2)s1	i	-0.75
Cc1cccc(NC(=O)CN2N=C(c3ccccc3)c3ccccc3S2(=O)=O)c1	i	1.4
COc1ccc(CCNC(=O)CCCc2nnc3n4nc(C)nc4c4ccccc4n23)cc1OC	i	-1.7
CN(C)c1ccc(C(CNS(=O)(=O)CCc2ccccc2)N2CCOCC2)cc1 (stereo not given)	i	-0.12
O=C(c1ccnc(-c2ccsc2)c1)N1CCN(c2ccccn2)CC1	i	-0.28
COc1ccccc1NC(=O)NCCCn1c(-c2ccncc2)nc2cccnc21	i	-0.44
COc1ccc(NC(=O)c2nn(C)c3c2CSc2ccc(Cl)cc2-3)cc1	i	0.1
CC(C)n1cnc(S(=O)(=O)N2CCC(C(=O)N3CCc4ccccc4C3)CC2)c1	i	0.34
Cc1cc(=O)[nH]c2c1c(=O)[nH]n2C1CCCC1	i	0.31
COc1cccc(NC(=O)Nc2ccc(Nc3nc(C)cc(N4CCCC4)n3)cc2)c1	i	-0.25
Cc1noc2ncnc(Nc3ccccc3F)c12	i	-1.5
CCCCNC(=O)c1cnc2sccn2c1=O	i	0.34
COc1ccc(NC(=O)Cn2nc3c4sc(N(C)C)nc4ncn3c2=O)cc1	i	0.29
CC(=O)Nc1ccc(-c2noc(C3CCCN(C(=O)Cc4ccc(F)cc4)C3)n2)cc1 (stereo not given)	i	-1.7
Cc1csc(-n2[nH]c(C)c(CCC(=O)Nc3c(C)cccc3C)c2=O)n1	i	0.04
Cc1ccc(NC(=O)N2CCSc3nc(C)cc(C)c32)c(Cl)c1	i	-0.18
CCC1c2ccc(C)n2CCN1C(=O)Nc1ccc(C)cc1Cl (stereo not given)	i	0.11
O=C1CCC(c2ccc(Br)cc2)=NN1	i	-2.4
CCc1ccc(NC(=O)CSc2nc3ccccc3c(=O)n2CC2COc3ccccc3O2)cc1 (stereo not given)	i	-0.62
O=C(O)CCn1c2c(c3ccccc31)C[C@H](NS(=O)(=O)c1ccc(F)cc1)CC2	i	-0.06
O=C(CCCn1c(=O)[nH]c2ccsc2c1=O)NCCc1ccccc1Cl	i	0.93
COc1ccc(CCN2C(=O)CCC2(C)C(=O)NC2CCCC2)cc1OC (stereo not given)	i	-2.1
Cc1ccc(C(=O)Nc2nc3c(s2)CN(S(=O)(=O)c2ccccc2)CC3)cc1Br	i	0.85
CCOC(=O)CCNC(=O)N1CCCC1c1cc(C)no1 (stereo not given)	i	0.5
CCS(=O)(=O)N1CCCc2cc(C(=O)Nc3ccccc3C(=O)OC)ccc21	i	-1.3
CCc1nc(-c2csc(S(=O)(=O)Nc3ccc(F)cc3F)c2)no1	i	0.04
c1ccc(Nc2nc(NC3CCCC3)nc3c2cnn3-c2ccccc2)cc1	i	1.5
Cc1ccc(N2C(=O)CN(Cc3cccnc3)[C@H]3CS(=O)(=O)C[C@H]32)cc1C	i	1
Cc1cc(C)c(NC(=O)C(C)n2nc(C)c3c(C)n(-c4ccccc4)nc3c2=O)c(C)c1 (stereo not given)	i	1.5
CCOC(=O)c1ccc(NC(=O)C2CCN(c3ncnc4c3sc3ncccc34)CC2)cc1	i	0.72
O=C(O)c1ccc(-n2ncc(Cl)c(Cl)c2=O)cc1	i	0.47
CCCc1nnc(-c2cc3ccccc3n2CCC(C)C)o1	i	-0.06
COc1ccc(/C=C/c2nc(-c3ccc4c(c3)[nH]c(=O)n4C(C)C)no2)cc1OC	i	-0.86
COc1ccc(NC(=O)Nc2ccccc2CCc2nc3ccccc3[nH]2)cc1	i	-0.4
Cc1ccc(Cl)cc1NC(=O)CC1C(=O)NCCN1C(=O)c1ccc(F)cc1 (stereo not given)	i	-0.41
CC(C)Cn1cnc2nc(CSc3ccccc3NC(=O)Nc3ccc4c(c3)OCO4)cc(=O)n21	i	0.9
CC(C)(C)C1CCc2c(sc3nc(-c4ccccc4)cn23)C1 (stereo not given)	i	-0.21
Cc1c(C(=O)N2CCN(Cc3ccc4c(c3)OCO4)CC2)cccc1-n1nnc2cccnc21	i	0.8
COc1cc(NC(=O)C2CCCN(S(=O)(=O)c3cc(-c4noc(C)n4)ccc3Cl)C2)cc(OC)c1 (stereo not given)	i	0.62
CC1CC(=O)Nc2ccccc2N1C(=O)CN1CCCCC1 (stereo not given)	i	1
Cc1nc(-c2ccc(Cl)c(S(=O)(=O)N3CCCC(C(=O)N4CCN(C5CCCCC5)CC4)C3)c2)no1 (stereo not given)	i	-0.26
Cn1cc(CCN2CCN(S(=O)(=O)c3ccc4c(c3)CCC4)CC2)c2cccnc21	i	-2.7
O=C(NC1CCCCC1)N1CCc2cc(S(=O)(=O)N3CCCC3)ccc21	i	-0.87
CCOC(=O)c1c(NC(=O)c2ccc(CN3CCc4ccccc4C3)cc2)sc2c1CCC2	i	0.63
COc1cccc(CNC(=O)CCCn2ccc3cc(S(=O)(=O)N4CCCC4)ccc32)c1	i	-0.82
Cc1nc(-c2ccc(N3CCN(C(=O)C4CC(=O)N(c5cccc(Cl)c5)C4)CC3)cc2)no1 (stereo not given)	i	1.5
COc1ccc(NC(=O)NCCCn2c(-c3ccncc3)nc3cccnc32)cc1	i	-0.83
Cc1nnc(-c2cccn2CC(=O)N2CCC(C)CC2)o1	i	1.4
COC(=O)c1ncn2c1C(=O)N(Cc1ccccc1C)C(C)(C(=O)NC1CCCC1)C2 (stereo not given)	i	0.68
Cn1c(=O)n(Cc2ccccc2Cl)c(=O)c2cnc(-c3cccnc3)nc21	i	0.4
Cc1cc(NC(=O)c2cccc(-n3cnnc3)n2)ccc1NC(=O)c1cc2ccccc2o1	i	-0.28
Cc1noc(C)c1S(=O)(=O)N1CCC(CC(=O)NCc2ccccn2)CC1	i	0.17
CCn1nc(SC(C)C)n2c(=O)c3c(nc12)-c1ccccc1CC3(C)C	i	0.08
CCOCCCNC(=O)c1cccn1-c1cccnc1	i	-0.43
CN(C)CCC=C1c2ccccc2CCc2ccccc21	i	-2.5&-0.14&0.85
C=CCn1c(SCC(=O)Nc2ccc(Cl)cc2)nc2sc(CC)cc2c1=O	i	0.3
The list continues.
SMILES	Choline anaer gr	Choline anaer gr early
CCC(CC)C(=O)NCc1csc(-c2ccc(OC)cc2)n1	i	0.32
O=C(CCc1nc(-c2ccncc2)no1)NC1CCCCC1	i	-1
CCOC(=O)c1ccc(NC(=O)Cn2nc3ccc(-c4ccc(Cl)cc4)nn3c2=O)cc1	i	1
Brc1c(NC2=NCCN2)ccc2nccnc12	i	0.28&0.58&0.14&0.24&0.77
CCCNC(=O)CN1C(=O)COc2ccc(S(=O)(=O)N(CC)CC)cc21	i	0.73
CN(C)c1cccc(C(=O)N2CCN(C(=O)c3cc4cc(Br)ccc4[nH]3)CC2)c1	i	-1.5
Cc1nc2cc(-c3noc(-c4cnccn4)n3)ccc2n(C(C)C)c1=O	i	0.75
Cc1cccc(-c2cc(N3CCN(S(=O)(=O)c4ccccc4C)CC3)ncn2)c1	i	0.37
CC1N=C2c3ccccc3N=C(SC(C)C(=O)Nc3ccc4c(c3)OCCO4)N2C1=O (stereo not given)	i	-0.86
Cc1cccc2cc3c(nc12)N(S(=O)(=O)c1ccc(Cl)cc1)CC3	i	1.1
COc1ccc(NC(=O)c2oc3ccccc3c2NC(=O)c2cc(-c3ccccc3)on2)cc1	i	1.2
CC(=O)OCCc1c(C)nc2c(C(=O)Nc3ccccc3)c[nH]n2c1=O	i	0.13
O=C(/C=C/c1ccccc1)NC(NC(=S)Nc1cccc2cccnc12)C(Cl)(Cl)Cl (stereo not given)	i	0.39
Cc1ccccc1CNC(=O)C1(C)CCCN(C(=O)c2ccnn2C)C1 (stereo not given)	i	-2
COc1ccc(Br)cc1CNC(=O)CN1C(=O)CSc2ncccc21	i	1.1
CNc1nc(C(N)=O)c(NC(=O)C2=Cc3ccccc3OC2)s1	i	0.16
COc1ccc(CN2CCCC2c2cc(C(C)C)no2)cc1O (stereo not given)	i	-0.22
COC(=O)c1sccc1NC(=O)NCc1cccn1Cc1cccc(C)c1	i	0.53
CC(c1ccccc1)N1CCc2[nH]c(=S)[nH]c(=O)c2C1 (stereo not given)	i	-0.17
Cc1nn(-c2ccccc2)c2c1C(C(=O)NC1CCCC1)N(c1ccc(C(C)C)cc1)C(=O)CS2 (stereo not given)	i	-0.32
Cc1cc(C)cc(-n2c(CN3CCN(C(=O)NC4CCCC4)CC3)nc3cccnc32)c1	i	-0.1
O=C(NC1CCc2ccccc21)C1CCN(c2ncnc3c2oc2ccccc23)CC1 (stereo not given)	i	0.49
CCOC(=O)CC1=CC(SCC(=O)Nc2ccc(Br)c(C)c2)=Nc2cc(C)c(C)cc2N1	i	-0.46
CCCOc1ccc(C2CC(=O)Nc3c2c(C)nn3-c2ccc3nnc(C)n3n2)cc1OC (stereo not given)	i	-0.4
O=C(CSc1c2c(nc3ccc(Cl)cc13)CCCC2)N1CCNC1=O	i	0.15
CS(=O)(=O)c1ccc([C@@H](O)[C@@H](CF)NC(=O)C(Cl)Cl)cc1	i	-2.3&-3
CCNC(=O)CN1C(=O)C2CCCCN2c2ccc(S(=O)(=O)N(C)C)cc21 (stereo not given)	i	-0.53
CCCCN(Cc1nc2nc(C)cc(C)n2n1)S(=O)(=O)c1ccc(Cl)cc1	i	0.28
CCc1ccc(N2C(=O)N(Cc3ccc(Cl)cc3)C3CS(=O)(=O)CC32)cc1 (stereo not given)	i	1.2
Cc1cccc2cc3c(nc12)N(S(=O)(=O)c1ccc(F)cc1)CC3	i	0.66
CC(C)Cc1nnc2sc(-c3c[nH]c4ccccc34)nn12	i	-0.08
Cc1ccc2c(c1)-c1c(cnn1CC(=O)N1CCCC1)CO2	i	-0.52
CCOC(=O)c1ccc(NC(=O)CC(c2ccc(OC)cc2)N2Cc3ccccc3C2=O)cc1 (stereo not given)	i	-0.36
CC(C)CCNC(=O)C1(C)CCc2ccccc2C(=O)N1Cc1ccccc1 (stereo not given)	i	-1.3
Cc1cccn2c(=O)cc(COc3cccc(NC(=O)Nc4ccc(Cl)cc4)c3)nc12	i	-0.28
O=C(Nc1ccccc1)c1cccc(-c2cc(NC3CCCCC3)ncn2)c1	i	1
CCCCN(C)S(=O)(=O)c1cc(-c2nnc(C3CCC3)o2)co1	i	0.37
Cc1cc2ccccc2c(=O)n1CC(=O)O	i	-0.78
CCOc1ccc(N2CCCCn3c2nc2c3c(=O)n(CCOC)c(=O)n2C)cc1	i	1.1
Cc1nc(-c2csc(S(=O)(=O)N3CCCC(C(=O)N4CCN(C)CC4)C3)c2)no1 (stereo not given)	i	0.69
Cc1cccc(C)c1NC(=O)CSc1nc(=O)[nH]nc1C	i	-4.7
Cc1ccc(N2C(=O)CCS2(=O)=O)cc1S(=O)(=O)NCCc1c[nH]c2ccccc12	i	-0.07
CCOC(=O)c1ccccc1NC(=O)Cn1nc(C(=O)Nc2ccccc2)ccc1=O	i	0.51
Cn1c(-c2nnc(SCC(=O)NCc3nc4ccccc4[nH]3)o2)cc2ccccc21	i	0.11
CCn1c(=O)[nH]c2cc(Cl)c(Cl)cc21	i	-1.3&0.38
Cc1ccc2[nH]cc(CCN3CC(C(=O)Nc4ccc(Cl)cc4)CC3=O)c2c1 (stereo not given)	i	0.09
CC1CCc2nn(CC(=O)N3CCC(Cc4ccccc4)CC3)cc2C1 (stereo not given)	i	0.41
Cc1ccc(CNc2ncnc3c2CCC3)o1	i	-3.3
Cc1ccc(-c2noc(-c3ccccc3S(=O)(=O)NC3CCCC3)n2)cc1	i	0.58
COC(=O)c1ccc2c(=O)n(-c3cc(F)cc(F)c3)c(N3CCCCC3)nc2c1	i	0.03
COc1ccc2[nH]cc(CCNC(=O)c3ccc(-c4ccc5c(c4)CCN5C(C)=O)cc3)c2c1	i	0.11

Structures listed so far with an NH in an aromatic ring (15):
SMILES	Choline anaer gr	Choline anaer gr early
Cc1cc(=O)[nH]c2c1c(=O)[nH]n2C1CCCC1	i	0.31
Cc1csc(-n2[nH]c(C)c(CCC(=O)Nc3c(C)cccc3C)c2=O)n1	i	0.04
O=C(CCCn1c(=O)[nH]c2ccsc2c1=O)NCCc1ccccc1Cl	i	0.93
COc1ccc(/C=C/c2nc(-c3ccc4c(c3)[nH]c(=O)n4C(C)C)no2)cc1OC	i	-0.86
COc1ccc(NC(=O)Nc2ccccc2CCc2nc3ccccc3[nH]2)cc1	i	-0.4
CN(C)c1cccc(C(=O)N2CCN(C(=O)c3cc4cc(Br)ccc4[nH]3)CC2)c1	i	-1.5
CC(=O)OCCc1c(C)nc2c(C(=O)Nc3ccccc3)c[nH]n2c1=O	i	0.13
CC(c1ccccc1)N1CCc2[nH]c(=S)[nH]c(=O)c2C1 (stereo not given)	i	-0.17
CC(C)Cc1nnc2sc(-c3c[nH]c4ccccc34)nn12	i	-0.08
Cc1cccc(C)c1NC(=O)CSc1nc(=O)[nH]nc1C	i	-4.7
Cc1ccc(N2C(=O)CCS2(=O)=O)cc1S(=O)(=O)NCCc1c[nH]c2ccccc12	i	-0.07
Cn1c(-c2nnc(SCC(=O)NCc3nc4ccccc4[nH]3)o2)cc2ccccc21	i	0.11
CCn1c(=O)[nH]c2cc(Cl)c(Cl)cc21	i	-1.3&0.38
Cc1ccc2[nH]cc(CCN3CC(C(=O)Nc4ccc(Cl)cc4)CC3=O)c2c1 (stereo not given)	i	0.09
COc1ccc2[nH]cc(CCNC(=O)c3ccc(-c4ccc5c(c4)CCN5C(C)=O)cc3)c2c1	i	0.11

Bioassay records deposited in PubChem BioAssay by ICCB-Longwood Screening Facility, Harvard Medical School.
